Screening results from PubChem.
Mtb H37Rv – Mycobacterium tuberculosis H37Rv growth inhibition, cell based, confirmatory dose response (AID 1949). inhibition, % at 10 µg/mL, or IC50 in µg/mL where a hit was titrated. most inactive calls were filed without a number and no value below 0 was filed. actives 1.6% (n = 100,000);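 active = confirmed in a dose series; inconclusive = about 50% or more but not retested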;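 also: bacteria grown 7 days with compound before Alamar blue readout; 0% = untreated bacteria and 100% = reference antibiotic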
* hit, by the source's call; i = inactive; u = inconclusive.

SMILES	Mtb H37Rv
COC(=O)c1c(C)oc2ccc(N(C(C)=O)S(=O)(=O)c3ccc(OC)cc3)cc12	3%
CCOn1c(=O)c(-c2cc3ccccc3o2)[n+]([O-])c2ccccc21	i
O=C(CSc1nnc(-c2ccccc2)n1-c1ccccc1)N1CCOCC1	i
N#Cc1c(NC(=O)C2CC(c3ccccc3O)=NO2)sc2c1CCCC2 (stereo not given)	i
CCn1cc(Br)c(C(=O)Nc2ccc(C)cc2)n1	2%
Cc1nc(N2CCN(Cc3ccc4c(c3)OCO4)CC2)nc2c1C(=O)CC(c1ccco1)C2 (stereo not given)	5.1µg/mL*
CCN1C(=O)c2ccc(C(=O)Nc3ccc(Br)cc3C)cc2C1=O	i
Brc1c(OCCN2CCCC2)ccc2ccccc12	i
C=CCn1c(SCC(=O)NCC(=O)OCC)nnc1-c1ccccc1Cl	i
CCOC(=O)c1c[nH]c2cc(C(F)(F)F)ccc2c1=O	i
O=C(c1ccccc1)C(Sc1nnc2c(n1)[nH]c1ccccc12)c1ccccc1 (stereo not given)	i
Cn1c(-n2c(CCCN3C(=O)c4ccccc4C3=O)nc3ccccc3c2=O)nc2ccccc21	i
CCSc1nnc(NC(=O)c2ccccc2[N+](=O)[O-])s1	i
CCNc1nc(NC(C)(C)C)nc(N2CCOCC2)n1	2%
O=c1oc2cc(O)c(Cl)cc2c2c1CCC2	i
COc1cc(C)c(C(C)C)cc1S(=O)(=O)N1CCOCC1	i
CCCc1nnc(NC(=O)CSc2nc(C)cc(C)n2)s1	i
CCOC(=O)C1=C(C)N(Cc2ccccc2)C(=O)NC1c1ccc(OC)cc1 (stereo not given)	i
COc1ccc(Cc2nnc(NC(=O)c3cccc(C)c3)s2)cc1	i
O=C(NC(=S)Nc1ccc(-c2ccc(CO)o2)cc1)c1cccs1	48%
CCc1c(C)c2ccc(OCC(N)=O)cc2oc1=O	i
Cc1nc2c(cnn2-c2ccccc2)c(=O)[nH]1	i
Cc1ccc(S(N)(=O)=O)cc1NC(=O)c1cc(-c2ccccc2Cl)nc2ccccc12	i
COC(=O)c1ccc2c(=O)n(NC(=O)c3cccs3)c(=S)[nH]c2c1	i
CC(C)Cc1ccc(S(=O)(=O)Nc2nc3ccccc3s2)cc1	i
COc1ccc(S(=O)(=O)Nc2ccc3c(c2)OCO3)cc1I	i
Cc1cc(C(=O)Oc2ccc3c(C)cc(=O)oc3c2)ccc1[N+](=O)[O-]	i
CCCc1cc(=O)oc2cc3occ(-c4ccc(OC)cc4)c3cc12	4%
O=C(CSc1nc2ccccc2o1)N=C1NC(=O)CS1	i
COc1cc(-c2nc(-c3cccnc3)no2)cc(OC)c1OC	2%
COc1ccc(CCNC(=O)C(C)Oc2ccc(C(=O)c3ccccc3)cc2)cc1OC (stereo not given)	i
CCc1cccc(CC)c1NC(=O)Cc1ccc(Cl)cc1	32%
O=C(Oc1ccccc1[N+](=O)[O-])c1ccco1	0%
CCOCC(=O)N1CCC(C(=O)OCC)CC1	i
O=C(NC1CC1)C(Cc1ccccc1)c1ccccc1 (stereo not given)	i
O=C(O)C(O)C(O)c1nc2ccccc2[nH]1 (stereo not given)	i
Cc1c(CCC(=O)O)c2ccccc2n1Cc1ccccc1	i
Cc1ccc(NC(=O)c2ccc(C(=O)N(C(C)C)C(C)C)cc2)cc1	i
CC(C)Oc1ccc(C(CC(=O)NCc2ccco2)c2ccccc2)cc1 (stereo not given)	1%
CCOc1ccc(C(=O)O/N=C(\N)c2cccnc2)cc1OCC	i

Brought forward from above: 3 entries; new compounds follow.
SMILES	Mtb H37Rv
Cc1ccc(NC(=O)c2ccc(C(=O)N(C(C)C)C(C)C)cc2)cc1	i
CC(C)Oc1ccc(C(CC(=O)NCc2ccco2)c2ccccc2)cc1 (stereo not given)	1%
CCOc1ccc(C(=O)O/N=C(\N)c2cccnc2)cc1OCC	i
S=C(Nc1cccnc1)N1CCCCC1	2%
COc1ccc(C(=O)N2CCC(C(=O)N3CCC(Cc4ccccc4)CC3)CC2)cc1	5%
O=C1CCCC2=C1C(c1ccc(OC(=O)c3ccccc3)cc1)c1c([nH]n(-c3ccccc3)c1=O)N2 (stereo not given)	3%
CCn1cc(Br)c(C(=O)Nc2cccc(SC)c2)n1	1%
COc1ccc(NC(=O)c2csc(C)c2)cc1OC	i
Cc1cccc(C(=O)Nc2ccc(CC(=O)O)cc2)c1	i
COc1cccc(NC(=O)COc2cccc(-c3ccccc3)c2)c1	45%
COc1ccc(C2CC(=O)C=C(Nc3ccc(Cl)cc3Cl)C2)cc1 (stereo not given)	i
O=C(O)c1ccccc1C(=O)N1CCN(C(=O)c2ccccc2C(=O)O)CC1	i
CC(C)(C)SCCNS(=O)(=O)c1cccc([N+](=O)[O-])c1	i
Cc1ccc(F)cc1NC(=O)COc1ccc(Cl)cc1	i
COC(=O)c1cn(Cc2ccc(Cl)c(Cl)c2)c2ccccc12	5%
OC(COc1ccc(Br)cc1)CN1CCC(Cc2ccccc2)CC1 (stereo not given)	3%
COc1ccc(OC)c(NS(=O)(=O)c2ccc(SC)cc2)c1	i
Cc1ccc(NC(=O)C(=O)NCc2ccccc2)cc1	i
Cc1ccc(NC(=O)CSc2nnc(CNC(=O)c3ccc(Br)cc3)n2C)cc1	i
COc1cc(C)ccc1OCCOCCOc1cccc(C)c1C	2%
Cc1cccc(OC(C)C(=O)Nc2ccc(Cl)cc2)c1C (stereo not given)	15%
Cc1nn2c(nc1=O)NN=C(c1ccccc1)C2	i
COc1ccc2cc(S(=O)(=O)Nc3ccccn3)ccc2c1	i
Cc1cc(NC(=O)C2CC=CCC2C(=O)O)ccc1NC(=O)c1ccccc1 (stereo not given)	i
CC(=O)c1cccc(NC(=S)Nc2ccc(OC(F)(F)F)cc2)c1	u
Clc1ccc(-c2ccc(-c3nn4c(-c5ccco5)nnc4s3)o2)cc1	i
CCn1c(CCNC(=O)c2ccc(Cl)cc2)nnc1SCC(=O)NC1CCCC1	i
COC(=O)c1c(NC(=O)Cc2ccc(OC)c(OC)c2)sc2c1CCC2	i
COc1ccc(N(CC(=O)N2CCC(C)CC2)S(C)(=O)=O)cc1OC	i
CCCc1nc(Nc2nc3ccccc3o2)ncc1C(=O)OCC	i
CCNc1nc(NC(C)C)nc(Oc2ccc(OCCOc3ccccc3)nn2)n1	i
COc1ccc(NS(=O)(=O)c2ccc(NS(=O)(=O)c3ccc(C)cc3)cc2)c(OC)c1	i
O=S(=O)(Nc1ccc(Cl)cc1)c1ccccc1F	i

4 entries from above in a different format.
SMILES: COC(=O)c1c(NC(=O)Cc2ccc(OC)c(OC)c2)sc2c1CCC2
  Mtb H37Rv: i

SMILES: COc1ccc(N(CC(=O)N2CCC(C)CC2)S(C)(=O)=O)cc1OC
  Mtb H37Rv: i

SMILES: Clc1ccc(-c2ccc(-c3nn4c(-c5ccco5)nnc4s3)o2)cc1
  Mtb H37Rv: i

SMILES: CC(=O)c1cccc(NC(=S)Nc2ccc(OC(F)(F)F)cc2)c1
  Mtb H37Rv: u

Following part.
SMILES	Mtb H37Rv
COc1ccc(NC(=S)NCCNC(C)=O)cc1	i
CCOC(=O)N1CCN(C(=O)CN(c2ccccc2)S(=O)(=O)N(C)C)CC1	3%
Cc1ccc(S(=O)(=O)N(CC(=O)NC2CCCCC2)C2CCCCC2)cc1	6%
COc1ccc(C(=O)CCC(=O)Nc2cccnc2)cc1OC	i
Cc1c(Cl)cccc1NC(=O)CSCC(=O)Nc1cc(C(F)(F)F)ccc1Cl	i
CN1CCN(C(=O)CN(c2cc(Cl)cc(Cl)c2)S(C)(=O)=O)CC1	i
O=C(COc1ccccc1F)Nc1cccc(F)c1	i
CCC1CCCCN1C(=O)c1ccc(F)cc1F (stereo not given)	i
Cc1ccc(Cl)cc1N1CCN(C(=O)c2ccccc2NS(C)(=O)=O)CC1	i
c1csc(-c2nc3ccccc3[nH]2)c1	i
Clc1ccc(OCCCCCN2CCCC2)c(Cl)c1	i
O=C(CCc1ccc(S(=O)(=O)NC2CCCCC2)cc1)N1CCN(Cc2ccccc2)CC1	i
COc1ccc(C(=O)COc2ccc(Cl)cc2)cc1	u
CC(=O)N1CCN(c2ccc(NC(=O)C(c3ccccc3)c3ccccc3)cc2)CC1	i
CC(=O)c1cccc(NC(=O)Nc2cc(C(=O)OC(C)C)cc(C(=O)OC(C)C)c2)c1	i
S=C(NCc1ccccc1)NC1CCCC1	i
Cc1ccc(C(C)C)c(OCC(=O)Nc2ccc(CN3CCOCC3)cc2)c1	4%
N#Cc1c(N2C(=O)C3C4C=CC(CC4)C3C2=O)sc2c1CCCC2 (stereo not given)	2%
COc1ccccc1N1CCN(CC(O)COCc2ccc3c(c2)OCO3)CC1 (stereo not given)	i
O=c1nc2n(c3ccccc13)Cc1ccccc1/C2=C\c1ccc2c(c1)OCO2	i

Reformatted in CSV form: part of the list above.
mol,Mtb H37Rv
CC(=O)N1CCN(c2ccc(NC(=O)C(c3ccccc3)c3ccccc3)cc2)CC1,i
CC(=O)c1cccc(NC(=O)Nc2cc(C(=O)OC(C)C)cc(C(=O)OC(C)C)c2)c1,i
S=C(NCc1ccccc1)NC1CCCC1,i
Cc1ccc(C(C)C)c(OCC(=O)Nc2ccc(CN3CCOCC3)cc2)c1,4%
N#Cc1c(N2C(=O)C3C4C=CC(CC4)C3C2=O)sc2c1CCCC2 (stereo not given),2%
COc1ccccc1N1CCN(CC(O)COCc2ccc3c(c2)OCO3)CC1 (stereo not given),i

Further structures follow.
SMILES	Mtb H37Rv
CC1CN(C(=S)Nc2ccccc2C(F)(F)F)CC(C)O1 (stereo not given)	5%
COc1ccc(-n2c(SCC(=O)N3CCCCC3)nc3ccc(I)cc3c2=O)cc1	i
CSc1ccccc1NC(=S)Nc1ccc([N+](=O)[O-])cc1	i
C=CCn1c(CNC(=O)c2ccc(OC)c(OC)c2)nnc1SCc1ccc(Br)cc1	i
O=C1CNC(=O)N1c1cccc(Cl)c1	i
Cc1ccc(N(C(=O)COc2ccc(Br)cc2)C2C=CS(=O)(=O)C2)cc1 (stereo not given)	i
O=C1CC(Sc2nc(-c3ccccc3)cc(C(F)(F)F)n2)C(=O)N1c1ccccc1 (stereo not given)	i
Cc1ccc(C(C)C)c(OCCn2nnc3ccccc32)c1	0%
CCOC(=O)C1=C(C)N=C2SC(C)C(=O)N2C1c1ccc(SC)cc1 (stereo not given)	i
O=C(CN1C(=O)C2C3C=CC(C4CC34)C2C1=O)Oc1ccc2ccccc2c1 (stereo not given)	42%
O=C(NCc1ccco1)c1ccccc1NS(=O)(=O)c1ccc(Br)s1	i
Cc1ccc(OCC(=O)Oc2cccc(NC3=NS(=O)(=O)c4ccccc43)c2)cc1	i
CC(=O)c1cccc(NC(=O)c2ccoc2C)c1	2%
O=C(NCCc1cccc2ccccc12)C1CCCN1S(=O)(=O)c1ccccc1 (stereo not given)	i
Cc1ccc(-c2nnc(N3CCOCC3)c3ccccc23)cc1S(=O)(=O)NC(C)(C)CO	i
Cc1ccc(-c2csc3ncn(Cc4ccc(Cl)c(Cl)c4)c(=O)c23)cc1	10%
COc1ccccc1C(NC(=O)COc1ccccc1)c1cc(Cl)c2cccnc2c1O (stereo not given)	i
CCOc1cccc(C2C(C(=O)OC)=CN(C(C)C)C=C2C(=O)OC)c1	i
O=S(=O)(c1ccc(F)c(Cl)c1)N1CCCCCC1	22%
CC(=O)c1ccc(Oc2ncnc3scc(-c4ccc(C)cc4)c23)cc1	11%
CCOC(=O)c1c(NC(=O)c2ccc(C(=O)O)cc2)sc(CC)c1-c1ccccc1	i
COc1ccc(-c2csc(NC(=S)NC(=O)c3ccccc3Br)n2)cc1	i
Brc1ccc(C2=Nn3c(COc4ccccc4)nnc3SC2)cc1	i
COC(=O)C1=C(C)NC(C)=C(C(=O)OC)C1c1ccc(F)c(Oc2ccccc2)c1	1%
CC(C)(C)c1ccc(OCCNC(=O)c2ccccc2N)cc1	5%
N#Cc1cccc(NC(=O)c2sc3nc4c(cc3c2N)C2CCN4CC2)c1	35%
COC(=O)c1cccc(NC(=O)COc2ccc(C(C)(C)C)cc2)c1	i
COc1ccc(S(=O)(=O)N(CC(=O)Nc2cccnc2)c2cccc(Cl)c2)cc1	1%
CC(C)C(=O)Nc1cccc(NC(=O)c2ccc(OCc3ccccc3)cc2)c1	i
CCN1CCN(c2oc(COc3ccc(Br)cc3)nc2C#N)CC1	i
CC(Sc1ccccc1)C(=O)Nc1ccccc1F (stereo not given)	i
CCN1CCN(C(=O)Nc2ccc(C(C)=O)cc2)CC1	i
COc1ccc(S(=O)(=O)N(CC(=O)Nc2cc(Cl)ccc2C)c2cc(C)cc(C)c2)cc1OC	i
COc1cc(C=O)cc(Br)c1OCCOc1cccc(C)c1	3%
N#C/C(=C/c1ccc(I)o1)c1ccc(C#N)cc1	1%
CNC(=O)CN(c1cccc(Cl)c1C)S(C)(=O)=O	i
CS(=O)(=O)Nc1ccccc1C(=O)N1CCOCC1	i
NC(=O)c1ccccc1NS(=O)(=O)Cc1ccccc1	i
CCOC(=O)c1c(-c2ccc(OC)cc2)oc2ccc(O)cc12	8%
CC(C)(C)c1ccc(COn2c(=O)c[n+]([O-])c3ccccc32)cc1	14%
COC(=O)C1=C(CNCc2ccc(F)cc2)NC(=O)NC1c1ccc(C)cc1C (stereo not given)	1%
Cc1cc(C)c(O)c(NC(=S)NC(=O)c2ccc(-c3ccccc3)cc2)c1	37%
Cc1c(CCC(=O)O)c(=O)oc2c(C)c(OCc3cccc4ccccc34)ccc12	u
Clc1ccc2[nH]c3c(c2c1)CCc1cn[nH]c1-3	i
CCOc1ccccc1N1CCN(C(=O)c2cc(-c3ccc4c(c3)OCO4)nc3ccccc23)CC1	27%
COc1ccc(S(=O)(=O)N2CCC(C(=O)NCc3ccco3)CC2)cc1	i
C#CCOc1ccc([N+](=O)[O-])cc1C=O	i
CN(C)S(=O)(=O)N(CC(=O)Nc1ccc2c(c1)OCCO2)c1ccccc1	1%
CN(CC(=O)NCc1ccc(F)cc1)S(=O)(=O)c1ccc(Br)cc1	i
CC(C)(C)C(=O)NCCCc1nc2ccccc2n1CCCOc1ccc(Cl)cc1	22%
C/C=C/c1ccc(OCCN(C)C)c(OC)c1	i

This is a subset; count on the stated rates, not on these rows.
